MARV entry inh: qHTS for inhibitors of binding or entry into cells for Marburg Virus; Marburg virus pseudotyped entry inhibition, cell reporter; control for the full effect not named in the record; about a third of the inactives were read at about 46 µM; Potency, µM (doses to about 37.8 µM), without a hit: top-dose activity change, negative = inhibition, actives largely listed as inhibitors; 300,000 tested, 1.8% active; AID 540276, 2011; active = well fitted inhibition curve with a large enough effect; inconclusive = small, poorly fitted or top-dose-only effect, or effect the other way; inactive = flat fitted curve, though single readings scatter; tested in HEK293 cells; about a fifth of its hits are not listed in these tables; further: on the % scale 0 is the no-effect control and ±100 the full control effect; luciferase read-out
LASV entry inh: qHTS for Inhibitors of binding or entry into cells for Lassa Virus; Lassa virus pseudotype entry inhibition, cell reporter; control for the full effect not named in the record; Potency, µM (highest dose often 37.9 µM), without a hit: at the highest dose activity change, negative = inhibition, hits mostly inhibitors; 300,000 tested, 1.2% active; active means well fitted inhibition curve with a large enough effect; inconclusive means small, poorly fitted or top-dose-only effect, or effect the other way; inactive means flat fitted curve, though single readings scatter; tested in HEK293 cells; further: on the % scale 0 is the no-effect control and ±100 the full control effect; nearly all actives have a fitted effect of over 50% in size; luciferase read-out
SARS PLP yeast: qHTS of Yeast-based Assay for SARS-CoV PLP. 330,000 tested, 0.19% active. AID 485353, 2010. S. cerevisiae expressing SARS-CoV PLpro, growth rescue; control for the full effect not named in the record. Potency, µM (top dose mostly 32.9 µM), without a hit: at the top dose activity, positive = growth rescue; further: 0% is about no effect; nearly all actives have a fitted effect of over 55% in size; growth read by luminescence after 48 h
RE007 growth inh: qHTS Assay for Inhibitors of the HIV-1 protein Vpr; 360,000 tested, 0.21% active; S. pombe RE007 Vpr strain, BacTiter-Glo ATP luminescence, 24 h; control for the full effect not named in the record; Potency, µM (doses to about 92.2 µM), for inactives: at the highest dose activity change, negative = less growth; AID 651644, 2012; active = well fitted falling curve with a large enough effect; inconclusive = small, poorly fitted or top-dose-only effect; inactive = no such curve, though single readings can be large or run the other way;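 further: on the % scale 0 is the no-effect control and ±100 the full control effect; nearly all actives have a fitted effect of over 50% in size; the assay follows cell death caused by Vpr and the record does not say whether a fall means rescue or toxicity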
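Fission yeast RE007 carrying one integrated HIV-1 vpr copy, seeded at OD 0.01 in PMG+AL medium with 23 nL pinned compound. Grown 24 h at 30 degrees; viability read by BacTiter-Glo luminescence after 5 min.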
NS1 inh: qHTS Assay for Inhibitors of Influenza NS1 Protein Function; S. cerevisiae slowed by influenza A NS1, growth recovery by OD600; 270,000 tested, 0.4% active; Potency, µM (highest dose often 46.1 µM), inactives show top-dose activity, positive = more growth; further: actives are rising curves; nearly all actives have a fitted effect of over 50% in size
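OD600 was taken as the measure of yeast growth restored by compound in an NS1-expressing S. cerevisiae strain. Cells had been washed out of glucose medium and diluted 1:100 into galactose -URA medium, pH 6.0.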
Cruzain inh Det: qHTS Assay for Promiscuous and Specific Inhibitors of Cruzain (with detergent); Cruzipain (Trypanosoma cruzi), P25779; AID 1478, 2009; Potency, µM, for the others: max response, negative = inhibition, hits mostly inhibitors; purified cruzain, Z-FR-AMC fluorescence, 0.01% Triton; 200,000 tested, 0.43% active; active means well fitted curve in the direction sought with a large enough effect; inconclusive means small, poorly fitted or top-dose-only effect, or another doubt; inactive means no such curve, though single readings can be large; an effect the other way counts as inactive or inconclusive;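 further: plate controls were neutral wells for no effect and buffer without enzyme for full effect; nearly all actives have a fitted effect of over 40% in size; top concentration of the series not given in the record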
Target sequence (P25779 123-467 limits assumed): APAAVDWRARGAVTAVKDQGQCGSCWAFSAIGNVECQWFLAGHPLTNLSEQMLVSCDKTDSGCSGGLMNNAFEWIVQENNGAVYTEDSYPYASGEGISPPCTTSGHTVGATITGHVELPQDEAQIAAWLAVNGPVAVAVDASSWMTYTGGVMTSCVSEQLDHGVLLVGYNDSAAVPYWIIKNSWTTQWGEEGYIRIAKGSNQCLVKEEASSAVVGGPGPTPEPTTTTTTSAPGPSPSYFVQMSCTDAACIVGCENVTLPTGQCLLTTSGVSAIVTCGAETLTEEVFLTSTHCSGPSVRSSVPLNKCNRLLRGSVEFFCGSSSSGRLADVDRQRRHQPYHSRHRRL
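Cysteine protease activity tested under reducing, mildly acidic conditions (100 mM sodium acetate pH 5.5, 5 mM DTT) plus 0.01% Triton X-100. Cruzain 1.5 nM; substrate Z-FR-AMC 2 uM; 15 min compound preincubation at room temperature.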
StopGo reporter: High Throughput Screening for Foot and Mouth Disease Virus Antivirals | Potency, µM (doses to about 57.9 µM), for the others: top-dose signal change, negative = less light | 410,000 tested, 1.2% active | human cells with a luciferase reporter of 2A StopGo recoding; control for the full effect not named in the record; active = well fitted falling curve with a large enough effect; inconclusive = small, poorly fitted or top-dose-only effect; inactive = no such curve, though single readings can be large or run the other way; tested in HEK293T cells; further: on the % scale 0 is the no-effect control and ±100 the full control effect; nearly all actives have a fitted effect of over 45% in size; luciferase light after 4 h
Cruzain noTriton: qHTS Assay for Promiscuous and Specific Inhibitors of Cruzain (without detergent); Potency, µM, for inactives: max response, negative = inhibition, usual class: inhibitors; purified cruzain, Z-FR-AMC fluorescence, no detergent; Cruzipain (Trypanosoma cruzi), P25779; 200,000 tested, 2.3% active; AID 1476, 2009; active means well fitted curve in the direction sought with a large enough effect; inconclusive means small, poorly fitted or top-dose-only effect, or another doubt; inactive means no such curve, though single readings can be large; an effect the other way counts as inactive or inconclusive;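 further: plate controls were enzyme without inhibitor for no effect and buffer without enzyme for full effect; nearly all actives have a fitted effect of over 40% in size; top concentration of the series not given in the record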
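Purified cruzain at 1.5 nM, pre-incubated 15 min with compound at room temperature in 100 mM sodium acetate pH 5.5, 5 mM DTT, 0.00005% Triton X-100. Reaction started with 2 uM Z-FR-AMC; AMC fluorescence increase over 60 s gives rate.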
* = called active by the depositor; ? = inconclusive; / = not tested or not shown; & = joins results of further samples; [ ] = dose if it differs, or a comment. Unless noted, the call rests on the fitted dose curve; in most records, active means well fitted rising curve with a large enough effect; inconclusive means small, poorly fitted or top-dose-only effect; inactive means no such curve, though single readings can be large or run the other way. Potency means the concentration at half of the fitted maximal effect. Not a hit list. Share with any hit: about 4.8%.

Assay codes – A = MARV entry inh; B = LASV entry inh; C = SARS PLP yeast; D = RE007 growth inh; E = NS1 inh; F = Cruzain inh Det; G = StopGo reporter; H = Cruzain noTriton
1) C=CCNC(=S)N1CCC(C(=O)c2ccc(C)cc2)CC1
  A: -11%[46.1 µM] | B: 13%[46.1 µM] | C: -3% | D: 7% | E: -12% | F: / | G: -10% | H: /

2) O=C(O)CCn1cc(/C=N/O)c(-c2cccc([N+](=O)[O-])c2)n1
  A: ? | B: -3%[46.1 µM] | C: -2% | D: 0% | E: / | F: / | G: -1% | H: /

3) CC(=O)c1sc2c(c1C)c(=O)n(-c1ccc(Cl)cc1)c(=O)n2Cc1cc(=O)n2cc(Cl)ccc2n1
  A: 1%[46.1 µM] | B: -4%[46.1 µM] | C: / | D: / | E: / | F: -2.4% | G: -26% | H: 7%

4) COc1ccccc1N1CCN(c2ncnc3c2oc2ccccc23)CC1
  A: ? | B: ? | C: 0% | D: 1% | E: -135% | F: -13% | G: ? | H: 14%

5) CC(=NO)C1CCC2C3CCC4=CC(=NO)CCC4(C)C3C(O)CC12C (stereo not drawn)
  A: -18% | B: -10% | C: / | D: -17% | E: / | F: / | G: -27% | H: /

6) CCN1C(=O)c2ccc(C(=O)Nc3c(C)cc(C)cc3C)cc2C1=O
  A: 4%[46.1 µM] | B: -15%[46.1 µM] | C: -3% | D: 17% | E: 4% | F: / | G: -8% | H: /

7) O=c1cccc2n1CC1CC2CN(Cc2cccc(Cl)c2Cl)C1 (stereo not drawn)
  A: -26% | B: 2% | C: -4% | D: 0% | E: -86% | F: -1.4% | G: ? | H: 6%

8) Cc1cc2c(C)nc(N/N=C/c3ccc(F)cc3)nc2o1
  A: 6% | B: -3% | C: -13% | D: 2% | E: 3% | F: -9.8% | G: 17% | H: -6%

9) COC(=O)N/N=C/c1ccccc1OCc1ccccc1
  A: 6% | B: 5% | C: 10% | D: -4% | E: -12% | F: -1.8% | G: -10% | H: 1%

10) Cc1ccc(C)c2sc(N3CCN(C(=O)c4ccc([N+](=O)[O-])o4)CC3)nc12
  A: 13µM* | B: ? | C: -1% | D: -10% | E: / | F: / | G: ? | H: /

11) O=C(Oc1cc(=O)n2ccccc2n1)c1ccccc1
  A: -27% | B: 17% | C: -2% | D: 2% | E: 9% | F: -29% | G: 6% | H: ?

12) CN1CCN(c2ccc(S(C)(=O)=O)cc2[N+](=O)[O-])CC1
  A: ? | B: 5% | C: 2% | D: -4% | E: 5% | F: -3.2% | G: 2% | H: -1%

13) CCOC(=O)c1csc(NC(=O)c2cc(OC)c(OC)c(OC)c2)n1
  A: ? | B: 5% | C: 6% | D: 2% | E: -38% | F: -3.0% | G: ? | H: 29%

14) O=c1cc(O)nc(SCc2ccccc2)[nH]1
  A: 14% | B: 17% | C: 2% | D: -7%[3.69 µM] | E: 28% | F: -3.6% | G: 4% | H: -26%

15) C=CCn1c(=O)c2c(nc3n2CC(C)CN3Cc2ccccc2)n(C)c1=O (stereo not drawn)
  A: / | B: / | C: -1% | D: 4% | E: -3% | F: / | G: -20% | H: /

Following part
Assay codes – A = MARV entry inh; B = LASV entry inh; C = SARS PLP yeast; D = RE007 growth inh; E = NS1 inh; F = Cruzain inh Det; G = StopGo reporter; H = Cruzain noTriton
16) O=C(c1ccco1)N1CCN(Cc2nnc(-c3ccccc3)o2)CC1
  A: -8% | B: 7% | C: ? | D: 4% | E: -2% | F: / | G: -24% | H: /

17) CC(C)(C)NC(=O)/C(=C\c1ccco1)NC(=O)c1cccs1
  A: 0% | B: -1% | C: 19% | D: 3% | E: 9% | F: -2.5% | G: -11% | H: -5%

18) Nc1ccc(Oc2ccc([N+](=O)[O-])cc2[N+](=O)[O-])cc1
  A: -23% | B: -10% | C: -3% | D: -7% | E: 7% | F: -6.4% | G: -20% | H: -26%

19) CN(CC(=O)Nc1ccccc1Br)C(=O)CCCSc1nc2ccccc2[nH]1
  A: -6% | B: 8% | C: 28% | D: -12% | E: / | F: / | G: 1% | H: /

20) Cc1ccc(NC2c3ncccc3C(=O)N2C2CCCCC2)cc1C (stereo not drawn)
  A: 8% | B: ? | C: -3% | D: -4% | E: 2% | F: 2.7% | G: -17% | H: -3%

21) O=C(NC1CCCC1)C(c1cccnc1)N(CCc1ccccc1)C(=O)c1ccco1 (stereo not drawn)
  A: -18%[46.1 µM] | B: ? | C: 1% | D: 10% | E: -9% | F: / | G: -12% | H: /

22) CCOc1ccc(NS(=O)(=O)c2cc(NC(=O)c3cccc(C)c3)ccc2Cl)cc1
  A: ? | B: 16µM* | C: 7% | D: 17% | E: ? | F: -4.3% | G: 41%[activator] | H: -11%

23) CCOc1ccc(C(=O)/C=C/c2ccc(SC)cc2)cc1
  A: -11% | B: -3% | C: -8% | D: -5% | E: -54% | F: -3.2% | G: -11% | H: 2%

24) O=C(CNc1cccc(C(F)(F)F)c1)N/N=C/c1cn(-c2ccccc2)nc1-c1ccccc1
  A: -35% | B: -28% | C: -24% | D: -9% | E: 15% | F: -1.7% | G: -13% | H: ?

25) COc1ccc(CCN2CC(C(=O)N(C)CCOc3ccccc3)CCC2=O)cc1 (stereo not drawn)
  A: / | B: / | C: -2% | D: 11% | E: -15% | F: / | G: -18% | H: /

26) Clc1ccccc1Cc1noc(CN2CCN3CCCC3C2)n1 (stereo not drawn)
  A: 6% | B: 13% | C: 0% | D: 1% | E: 0% | F: / | G: -2% | H: /

27) CC(OC(=O)CNS(=O)(=O)c1ccc(C#N)cc1)C(=O)Nc1ccc(Cl)cn1 (stereo not drawn)
  A: 0% | B: -4% | C: -2% | D: -9% | E: / | F: / | G: -6% | H: /

28) CN(C)S(=O)(=O)c1ccc(C(=O)N2CCN(S(=O)(=O)c3ccc4c(c3)OCCO4)CC2)cc1
  A: 9% | B: 10% | C: / | D: -4% | E: / | F: / | G: -15% | H: /

29) COC(=O)c1ccc2c(=O)n(CCCN3CCCC3=O)c(=S)[nH]c2c1
  A: 9% | B: -15% | C: 0% | D: -7% | E: 2% | F: -2.9% | G: 10% | H: -8%

30) CCn1c(=N)c(C(=O)NCc2cccnc2)cc2c(=O)n3cc(C)ccc3nc21
  A: ? | B: ? | C: / | D: / | E: / | F: 0.2% | G: -14% | H: 1%

New compounds follow.
# | Structure | MARV entry inh | LASV entry inh | SARS PLP yeast | RE007 growth inh | NS1 inh | Cruzain inh Det | StopGo reporter | Cruzain noTriton
31 | COCCNC(=O)CSc1nc(-c2ccc(OC)c(OC)c2)cc(C(F)(F)F)n1 | -15%&-15% | -1% | 0% | -10% | -12% | -1.0% | -20% | ?
32 | O=c1[nH]c(=S)n(-c2ccccc2F)c(O)c1C=NCCN1CCNCC1 | / | / | 3% | -15% | 5% | / | -5% | /
33 | CC(=O)Nc1ccc(N2CCCCC2)c(C(=O)Nc2cccc(C)c2)c1 | -13% | 11% | -4% | -20% | -93% | -11% | -27% | ?
34 | Cc1ccc(-n2c(P(C)(=O)O)nc3ccccc32)cc1 | 12%[46.1 µM] | 1% | 2% | 5% | / | / | 17% | /

Among those listed so far, these have a furan ring, fused or not:
# | Structure | MARV entry inh | LASV entry inh | SARS PLP yeast | RE007 growth inh | NS1 inh | Cruzain inh Det | StopGo reporter | Cruzain noTriton
4 | COc1ccccc1N1CCN(c2ncnc3c2oc2ccccc23)CC1 | ? | ? | 0% | 1% | -135% | -13% | ? | 14%
8 | Cc1cc2c(C)nc(N/N=C/c3ccc(F)cc3)nc2o1 | 6% | -3% | -13% | 2% | 3% | -9.8% | 17% | -6%
10 | Cc1ccc(C)c2sc(N3CCN(C(=O)c4ccc([N+](=O)[O-])o4)CC3)nc12 | 13µM* | ? | -1% | -10% | / | / | ? | /
16 | O=C(c1ccco1)N1CCN(Cc2nnc(-c3ccccc3)o2)CC1 | -8% | 7% | ? | 4% | -2% | / | -24% | /
17 | CC(C)(C)NC(=O)/C(=C\c1ccco1)NC(=O)c1cccs1 | 0% | -1% | 19% | 3% | 9% | -2.5% | -11% | -5%
21 | O=C(NC1CCCC1)C(c1cccnc1)N(CCc1ccccc1)C(=O)c1ccco1 (stereo not drawn) | -18%[46.1 µM] | ? | 1% | 10% | -9% | / | -12% | /
